Measles inh: inhibitors of measles virus growth in infected cells. AID 745. 33,000 tested, 0.1% active. z-score (no concentration beside the values). infected Vero cells, GFP fluorescence, 64 h; active compounds read low;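 active = z-score under -3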;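 also: score is relative to mean and SD of the compound wells of a plate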
* = called active by the depositor. These rows are one share of the data; the hit share may differ from the screen's.

CC1(C)CC(NS(=O)(=O)c2ccc(S(N)(=O)=O)cc2)CC(C)(C)N1
  Measles inh = 0.06
Cc1ccc(S(=O)(=O)N2c3ccc(S(N)(=O)=O)cc3CC2C)cc1 (stereo not drawn)
  Measles inh = 0.59
S=c1sc2c(N3CCCCC3)ncnc2n1-c1ccccc1
  Measles inh = 0.61
O=C(Nc1ccc(Br)cc1)c1ccc(F)c(S(=O)(=O)N2CCCCCC2)c1
  Measles inh = -0.57
CC1CCN(C(=O)CCNC(=O)c2cccs2)CC1
  Measles inh = 1.5
CCOC(=O)C1=C(C)NC2=C(C(=O)c3ccccc32)C1c1cc(Br)ccc1OCC (stereo not drawn)
  Measles inh = -0.61
COc1ccc(C(=O)NCC2(c3ccccc3)CCOCC2)cc1[N+](=O)[O-]
  Measles inh = -0.17
COc1ccc(C(=O)N2CCN(Cc3ccccc3)CC2)cc1[N+](=O)[O-]
  Measles inh = 0.04
CCCCCCCSc1nnc2nc(C)cc(C)n12
  Measles inh = -3.1*
OCCn1c(-c2ccc(Cl)cc2)cn2c3ccccc3nc12
  Measles inh = 0.14
CC(C)n1c(SCCO)nc2c1c(=O)[nH]c(=O)n2C
  Measles inh = -0.69
CCc1ccccc1NC(=O)C(Cc1ccccc1)NS(=O)(=O)c1cccs1 (stereo not drawn)
  Measles inh = -0.51
CCC(C)NC(=O)Cn1cnc2sc3c(c2c1=O)CCCC3 (stereo not drawn)
  Measles inh = -0.16
CC(C)c1ccc(OCC(=O)NCCN(C)C)cc1
  Measles inh = -0.62
Cc1ccccc1CSc1nc2c(c(=O)n1-c1ccc(Br)cc1)SCC2
  Measles inh = 0.21
O=C(C1CCN(S(=O)(=O)c2cccnc2)CC1)N1CCCCCC1
  Measles inh = 1.6
N#Cc1ccc(-c2ccc(OC(=O)c3cccnc3)cc2)cc1
  Measles inh = -0.13
COc1ccc(CCNC(=O)C2CCN(c3nc4ccccc4[nH]3)CC2)cc1OC
  Measles inh = -0.3
S=C1NC2(CCCC2)Nc2ccccc21
  Measles inh = 0.19
CCn1c(=S)[nH]c2sc3c(c2c1=O)CCC(C)C3 (stereo not drawn)
  Measles inh = -0.76
Clc1ccc2nc(N=Cc3ccc(Br)cc3)sc2c1
  Measles inh = -0.03
NS(=O)(=O)c1ccc(NC(=O)CSC2=NC(=O)C(c3ccccc3)C(=O)N2)cc1 (stereo not drawn)
  Measles inh = 0.43
Cc1ncc(CO)c2cc(-c3nnc(Nc4ccc(Br)cc4)s3)c(=O)oc12
  Measles inh = -0.14
COc1ccc(OC)c(C2C(C(C)=O)=C(O)C(=O)N2CCC(=O)O)c1 (stereo not drawn)
  Measles inh = 0.95
CC(C)c1ccc(N(C)C(=O)c2cnc(N3CCN(c4ccccn4)CC3)c3ccccc23)cc1
  Measles inh = -2.3

CCCN1C(=O)c2ccc(-c3nc4ccccc4c(=O)o3)cc2C1=O
  Measles inh = -0.5
CCc1ccccc1Nc1cc(C(=O)NCCCN2CCOCC2)c2ccccc2n1
  Measles inh = -0.02
Clc1ccc(-n2cc(-c3ccccc3)c3c(N4CCOCC4)ncnc32)cc1
  Measles inh = 1
Cc1cc(C)cc(-n2nnc(C(=O)Nc3ccccc3F)c2N)c1
  Measles inh = -0.55
CCC1Oc2ccccc2N(CC(=O)NCCCN2CCN(c3ccccc3F)CC2)C1=O (stereo not drawn)
  Measles inh = -0.16
CC(C)CN(CC(C)C)S(=O)(=O)c1ccc(C(=O)Nc2nc3c(s2)CCCC3)cc1
  Measles inh = -0.74
O=C(Nc1ccc(Cl)c([N+](=O)[O-])c1)C1CC(=O)N(c2ccc(F)cc2)C1 (stereo not drawn)
  Measles inh = -0.78
CC[n+]1c(C=C2Sc3cc(C)ccc3N2CCO)ccc2ccccc21
  Measles inh = 1.7
C=CCc1cccc(CNc2c(C)cc(C)cc2C)c1O
  Measles inh = -0.04
Cc1ccc(NC(=O)Cn2cnc3sc(C(=O)N4CCC(C(N)=O)CC4)c(C)c3c2=O)cc1Cl
  Measles inh = 1.2
Cc1ccc(C2Oc3ccc(Cl)cc3C3=C2C(c2ccccc2F)n2ncnc2N3)cc1 (stereo not drawn)
  Measles inh = -0.18
O=C(CC(SCc1ccco1)c1ccc(Cl)cc1)c1cccs1 (stereo not drawn)
  Measles inh = -0.85
COc1ccc(OC)c(S(=O)(=O)n2nnc3ccccc32)c1
  Measles inh = -0.49
CCOc1ccc(S(=O)(=O)Nc2ccc(OC(F)(F)F)cc2)c2cccnc12
  Measles inh = 0.13
COc1ccc(-n2nc3c(c2NC(=O)CC(C)C)CSC3)cc1
  Measles inh = -0.86
Nc1c(C(=O)Nc2ccc3ccccc3c2)sc2nc(-c3ccccc3)cc(-c3ccco3)c12
  Measles inh = 3.7
COC(=O)c1sc(=S)n(-c2ccc(C)cc2)c1N
  Measles inh = 0.47
CCn1c(=O)n(CC(=O)NCCN(C)C)c(=O)c2ccccc21
  Measles inh = -0.28
Nc1nc(F)cc(Oc2ccc(F)cc2)n1
  Measles inh = -0.11
CC(CN1CCN(C)CC1)OC(=O)c1ccc(C(C)(C)C)cc1 (stereo not drawn)
  Measles inh = -0.4
Cc1ccc(-n2ncc3c(Nc4ccc(C(C)C)cc4)ncnc32)c(C)c1
  Measles inh = 1
CCOc1ccc(NC(=NS(=O)(=O)c2ccc(Cl)cc2)c2ccccc2)cc1
  Measles inh = -0.57
Nc1cc2c(cc1[N+](=O)[O-])OCCOCCOc1ccc([N+](=O)[O-])cc1OCCOCCO2
  Measles inh = -1.5
Cc1cc(C)cc(CC(C(=O)Nc2cccc(C(F)(F)F)c2)C(C)C(=O)O)c1 (stereo not drawn)
  Measles inh = 0.37
COc1cc(NC(=O)c2sc3ncn(Cc4cccc(F)c4)c(=O)c3c2C)cc(OC)c1OC
  Measles inh = -1

Cc1nnc(NC(=O)CSc2c[nH]c3ccccc23)s1
  Measles inh = -1.2
O=C(O)CCC(=O)N1N=C(c2c(-c3ccccc3)c3cc(Br)ccc3[nH]c2=O)CC1c1ccc(Br)cc1 (stereo not drawn)
  Measles inh = 0.04
COc1ccc(N)cc1-n1c(C)ccc1C
  Measles inh = 0.68
C=CCNC(=O)C1C(C=C(Cl)Cl)C1(C)C (stereo not drawn)
  Measles inh = -0.18
O=C(Nc1ccc2c(c1)OCO2)C(c1ccccc1)N(Cc1ccccc1)c1ccccc1 (stereo not drawn)
  Measles inh = -0.23
COc1ccccc1CNC(=O)CNC(=O)Cn1c(C)cc2ccccc2c1=O
  Measles inh = -0.4
Cc1ccc(C)c(C(=O)CSc2ncn[nH]2)c1
  Measles inh = -0.25
CCSc1nnc2c(n1)OC(c1cccc(F)c1)Nc1ccccc1-2 (stereo not drawn)
  Measles inh = -1.4
Cc1ccc(Oc2ccc(N3C(=O)C4C5C=CC(C5)C4C3=O)cc2)cc1 (stereo not drawn)
  Measles inh = 0.54
CC(Sc1nc2c(c(=O)n1-c1ccccc1)SCC2)c1ccccc1 (stereo not drawn)
  Measles inh = -0.04
O=C(Cc1ccccc1)N1CCN(S(=O)(=O)c2ccccc2)CC1
  Measles inh = -1.2
CCOc1ccc(C2=NN3C(C2)c2cccc(OCC)c2OC3c2cc(OC)ccc2OC)cc1 (stereo not drawn)
  Measles inh = 0.01
Cc1ccc(Cl)cc1N1CCN(C(=O)Cn2nc(C(F)(F)F)c(Br)c2C)CC1
  Measles inh = -0.2
S=c1nc(-c2ccccc2)n(CCCn2ccnc2)c2c1CCCC2
  Measles inh = -0.25
Clc1ccc(CSc2nc(NCC3CCCO3)c3ccccc3n2)cc1 (stereo not drawn)
  Measles inh = 0.12
COc1ccc(NC(=O)CCCn2c(=O)c3sccc3n(Cc3cc(=O)n4cc(Cl)ccc4n3)c2=O)cc1
  Measles inh = 0.14
COCc1cc(C)nc2sc(-c3ccc(C(=O)OC)o3)c(N)c12
  Measles inh = -0.45
Cc1ccc(C(NC(=O)C(C)C)c2ccc3cccnc3c2O)cc1 (stereo not drawn)
  Measles inh = -0.14
COC(=O)c1ccccc1NC(=O)c1cc2nc(-c3cccs3)cc(C(F)(F)F)n2n1
  Measles inh = 2.4
COc1ccc(C(C)(C#N)CC#N)cc1 (stereo not drawn)
  Measles inh = -0.77
O=C(Cn1nc(-c2ccccc2)c2ccccc2c1=O)Nc1cccc(C(F)(F)F)c1
  Measles inh = 1.3
Cc1ccc[n+](CC(=O)c2ccc(Cl)cc2)c1C
  Measles inh = 1
CC(C)CCN=c1c([N+](=O)[O-])nn(-c2ccccc2)n1O
  Measles inh = -1.6
CN1CCOCCOCCN(C)C(=O)N2CCOCCOCCN(CCOCC2)C1=O
  Measles inh = 0.13
Cc1ccc(NC(=O)c2sc3nc(C)nc(N4CCC(C)CC4)c3c2C)c(Br)c1
  Measles inh = -0.54

Looked up above.
Under Measles inh, COc1ccc(N)cc1-n1c(C)ccc1C is entered as 0.68
Under Measles inh, COc1ccccc1CNC(=O)CNC(=O)Cn1c(C)cc2ccccc2c1=O is entered as -0.4
Under Measles inh, CC(C)CCN=c1c([N+](=O)[O-])nn(-c2ccccc2)n1O is entered as -1.6
Under Measles inh, CC(Sc1nc2c(c(=O)n1-c1ccccc1)SCC2)c1ccccc1 (stereo not drawn) is entered as -0.04

Continued:
CCC(C)NC(=O)CCNS(=O)(=O)c1ccc(OC)cc1 (stereo not drawn)
  Measles inh = 1.9
O=C1C(Nc2ccc(O)cc2)=CC(=NS(=O)(=O)c2ccc(F)cc2)c2ccccc21
  Measles inh = -0.57
CCc1ccc(-n2c(SCc3cccc(F)c3)nc3[nH]ncc3c2=O)cc1
  Measles inh = -0.6
CCc1ccc(NC(=O)C2COc3ccccc3O2)cc1 (stereo not drawn)
  Measles inh = 0.25
COc1ccc(CC(=O)NCc2ccc3c(c2)OCO3)cc1
  Measles inh = 0.34
CC1=C(C(=O)Nc2ccc(C)cc2C)C(c2cccc(Br)c2)n2ncnc2N1 (stereo not drawn)
  Measles inh = -0.35
CC(C)COC(=O)c1ccc(NC(=O)CCN2C(=O)c3ccccc3C2=O)cc1
  Measles inh = -0.63
Cc1cc(C)nc(/N=C(/NC(=O)c2ccc(F)cc2)Nc2ccccc2)n1
  Measles inh = 1.4
CCOC(=O)c1ccc(NC(=O)c2ccc(N)cc2)cc1
  Measles inh = 0.85
CCCCN(C)CCNS(=O)(=O)c1cc(Br)cc2c1N(C(C)=O)CC2
  Measles inh = -0.24
Cc1ccc(C(=O)N2C(=O)C(c3ccccc3)Oc3ccccc32)cc1 (stereo not drawn)
  Measles inh = -0.29
COc1cc(C(=O)Oc2c(S(=O)(=O)c3ccccc3)c(C)nn2-c2ccccc2)cc(OC)c1OC
  Measles inh = 1.6
COc1ccccc1N1C(=O)c2ccc(C(=O)COC(=O)c3ccccc3)cc2C1=O
  Measles inh = -0.16
Cc1cc2c(=O)n(CC(=O)N3CC(C)CC(C)C3)cnc2s1 (stereo not drawn)
  Measles inh = 0.49
Cc1ccccc1NC(=O)c1ccc(C)c(S(=O)(=O)Nc2ccc(C(=O)O)cc2)c1
  Measles inh = 0.3
Cc1ccc(C)c(NC(=O)c2cnn3cccnc23)c1
  Measles inh = 0.18
Cc1ccc(F)cc1N1C(=O)CSC1c1ccc([N+](=O)[O-])cc1 (stereo not drawn)
  Measles inh = -0.35
Cc1ccc(NC(=O)C2C(C(=O)O)C3C=CC2C32CC2)cc1 (stereo not drawn)
  Measles inh = -0.83
O=C(Nc1ccccc1C(F)(F)F)c1cc(S(=O)(=O)NCC2CCCO2)ccc1F (stereo not drawn)
  Measles inh = 1.6
CN(C)CCCNc1c([N+](=O)[O-])c(=O)oc2ccccc12
  Measles inh = 0.3
COc1ccc(-c2nc3ccccc3o2)cc1NC(=O)c1ccc(-c2ccccc2[N+](=O)[O-])o1
  Measles inh = -0.26
O=C(CSc1nc2ccccc2n1S(=O)(=O)c1ccccc1)NCCc1ccccc1
  Measles inh = 0.24
Cc1c(C(=O)O)oc2ccc(S(=O)(=O)N3CCC(C)CC3)cc12
  Measles inh = 0.14
CCOc1ccccc1NS(=O)(=O)c1ccc(OCC)c2ncccc12
  Measles inh = 0.42
NS(=O)(=O)c1ccc(Nc2nc(-c3ccccc3)c3cc(Br)ccc3n2)cc1
  Measles inh = -1.3

COc1ccc(N2C(=O)c3ccccc3NC2c2ccc(OC)c(CSc3ccccn3)c2)cc1 (stereo not drawn)
  Measles inh = -1.4
O=C(CCN1C(=O)c2cccc3cccc(c23)C1=O)OCC=Cc1ccccc1
  Measles inh = -1.1
O=C(Nc1cccc(-c2nc3ccccc3[nH]2)c1)c1ccccc1[N+](=O)[O-]
  Measles inh = -0.72
CCCCSc1nnc2c(n1)OC(c1cc(Cl)cc(OC)c1OC(C)=O)N(C(C)=O)c1ccccc1-2 (stereo not drawn)
  Measles inh = -0.27
O=C(NC1CCCC1)c1cc(-c2ccco2)on1
  Measles inh = -0.43
CCC(C)NC(=O)c1ccc2c(c1)[nH]c(=S)n1c3ccccc3nc21 (stereo not drawn)
  Measles inh = -0.33
O=C(CSc1nnc(-c2c[nH]c3ccccc23)n1-c1ccc(F)cc1)NCc1ccco1
  Measles inh = -0.55
COc1ccc(C=Cc2cc(=O)c3ccc4ccccc4c3o2)cc1
  Measles inh = -0.93
CCOC(=O)C1=CSC2(S1)C(C(=O)OCC)=CSC1=C2c2cc(C)ccc2N(C(=O)CC)C1(C)C (stereo not drawn)
  Measles inh = 0.97
CCN(CC)c1nc2c(c(=O)n(C)c(=O)n2C)n1CCCc1ccccc1
  Measles inh = 2.4
O=C1N=C(SCC(=O)N2CCCCC2)NC(=O)C1Cc1ccccc1 (stereo not drawn)
  Measles inh = -0.33
COc1ccc(N2C(=O)Nc3ccc(Br)cc3C2(O)C(=O)NCc2ccccc2Cl)c(OC)c1 (stereo not drawn)
  Measles inh = -0.09
O=C(NCCn1cc(SCc2ccc([N+](=O)[O-])cc2)c2ccccc21)c1cccs1
  Measles inh = 0.27
COc1ccc(NC(=O)CC2Nc3cc(C)c(C)cc3NC2=O)c([N+](=O)[O-])c1 (stereo not drawn)
  Measles inh = -0.58
CCOC(=O)c1c(NC(=O)c2ccc([N+](=O)[O-])cc2)sc(C(=O)N2CCCCCC2)c1C
  Measles inh = -0.79
O=C(C1CCN(S(=O)(=O)c2cnc[nH]2)CC1)N1CCc2ccccc2C1
  Measles inh = 0.39
O=C(Nc1cc(Oc2ccccc2)cc([N+](=O)[O-])c1)c1ccc(F)cc1
  Measles inh = -0.4
Cc1ccccc1NC(=O)CCNS(=O)(=O)c1cccc2nonc12
  Measles inh = 1.9

Marked active in Measles inh, among the entries above:
CCCCCCCSc1nnc2nc(C)cc(C)n12
  Measles inh = -3.1*
